# Screening results deposited in PubChem BioAssay by several laboratories.
# Bead autofluor – flagged as autofluorescent in microsphere protease counterscreen; compound autofluorescence counterscreen, microsphere flow cytometry; active compounds read high; fluorescence intensity (no concentration beside the values); 360,000 compounds, 3.1% hits;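 active means at least 3 SD above the mean of all compounds, about 16000 in these data; inconclusive means too few beads counted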;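 further: 100 nL of 1 mM stock went into each well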
# RN4220 kill – S. aureus RN4220 growth inhibition; OD600, 16 h; 330,000 compounds, 0.33% hits; inhibition, % (concentration not given with the values);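 active means z-score of -3 or lower and OD600 up to 0.18 on both plates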;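 further: plate controls were untreated cells for no effect and reference antibiotic for full effect; stock transfer was 100 nL into about 80 µL; one replicate is shown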
# ugtP null kill – growth inhibition of S. aureus ugtP deletion strain. S. aureus RN4220 ugtP deletion, OD600 growth, 16 h; some inactives read as strong as hits. growth inhibition, % (concentration not given with the values). 330,000 compounds, 0.54% hits. AID 1259309;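 active means z-score under -3 and OD600 up to 0.15 on both plates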;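 further: plate controls were untreated wells for no effect and antibiotic for full effect; wells of about 80 µL received 100 nL stock; the first replicate is given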
# BJeLR lethal – BJeLR cell viability loss. BJeLR (HRASV12) viability, CellTiter-Glo ATP luminescence, 48 h; reference of the scale not given here. inhibition, % (no concentration beside the values). 300,000 compounds, 0.17% hits;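 active means replicate mean above 50%; inconclusive means above 50% but judged a plate artefact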;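 further: 50 nL library stock added to about 25 µL; numbers are from one replicate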
# Mtb hypoxia inh – Mtb hypoxia fluorescent reporter inhibition | M. tuberculosis hypoxia-regulated fluorescent reporter, fluorescence | fluorescence inhibition, % (no concentration beside the values) | 300,000 compounds, 0.1% hits;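 active means 35 to 45% if threefold the growth effect, above 45% if 1.5-fold the growth effect; inactive means the rest, general growth blockers included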;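 further: wells of about 50 µL received 100 nL stock; 0% = vehicle wells and 100% = reference inhibitor wells; whole bacteria with a GFP reporter of the hypoxia response; strong numbers were not always called active; many hits fall short of the cut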
# PrP UTR inh – suppresses PrP 5' UTR mRNA reporter expression; AID 488862; inhibition, % (concentration not given with the values); cell-based PrP 5' UTR mRNA reporter, plate reader; 340,000 compounds, 0.35% hits;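 active means every replicate at 50% or more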;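 further: 0 = median of the neutral control wells; tested in H4 reporter cells; numbers are from one replicate; inactives centre near -14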
# Mtb hypoxia inh growth – also measured in Mtb hypoxia inh; calls as there; growth inhibition, %; measured here: M. tuberculosis growth (absorbance);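 0% = vehicle and 100% = reference antibiotic; read after six days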
# Active calls of the source: *; ? = inconclusive; . = no result given; & = joins results of further samples. This is a random part of the collection. Share with any hit: about 4%.
SMILES,Bead autofluor,RN4220 kill,ugtP null kill,BJeLR lethal,Mtb hypoxia inh,Mtb hypoxia inh growth,PrP UTR inh
CC(C)Oc1ccc(C(=O)/C=C2/C(=O)Nc3ccccc32)cc1,4169,16,11,-4,11,15,-14
NS(=O)(=O)c1cc2c(cc1Cl)NC(Cc1ccccc1)NS2(=O)=O (stereo not drawn),4189,5.2,11,7,-7,-2,-9
CC(N)C12CC3CC(CC(C3)C1)C2 (stereo not drawn),5784&6092,2.9&0.0,-1&6,2&-16,4&-5,6&7,-6&-12
Cc1ccc(S(=O)(=O)N/N=C/c2cn(C)nc2C)cc1,2225,.,.,-7,.,.,-9
CC(OC(=O)CCCc1c[nH]c2ccccc12)C(=O)Nc1ccc(S(N)(=O)=O)cc1 (stereo not drawn),5846,5.5,-1,4,0,1,-25
CCn1c(C)nc2cc(C(=O)NNC(=S)Nc3ccc(Cl)cc3Cl)ccc21,1965,3.3,-2,-4,5,11,-11
CCCCc1nnc(NC(=O)C2CCCO2)s1 (stereo not drawn),8436,2.5,10,7,13,2,-15
CCc1nc2sc(C(=O)O)c(N)c2c2c1CCCC2,5237,8.1,11,9,-5,-3,-13
COc1ccc(C2=NOC(Cn3nc(C(=O)NCc4ccccc4OC)cc3-c3ccccc3)C2)cc1 (stereo not drawn),2927,-0.1,9,12,0,1,-15
O=C(Nc1ccc2c(c1)OCCO2)c1cccc(S(=O)(=O)N2CCCCC2)c1,21092*,-0.1,7,6,2,3,-17
Cc1nnc(Oc2ccccc2F)c2ccccc12,3346,5.3,1,-17,3,5,-45
O=C1c2ccccc2[C@@H]2C[C@H]3O[C@H]3CCN12,2919,3.7,5,.,7,8,-18
CCn1c(SCC(=O)Nc2cc(C)on2)nc2c(c1=O)SC(C)C2 (stereo not drawn),6761,5.8,7,-4,10,3,-19
O=C1c2ccccc2-c2ncnc3c(N4CCOCC4)cc(N4CCOCC4)c1c23,4379,3.4,11,10,.,.,8
O=C(CSc1n[nH]c(-c2ccccn2)n1)Nc1ccccc1,?,-1.8,-8,-2,-1,2,-19
CC1(C)O[C@H]2CC(=O)OC[C@]23[C@H]2CC[C@@]4(C)[C@H](c5ccoc5)OC(=O)[C@H]5O[C@]54[C@]2(C)[C@@H](O)C[C@@H]13,4034,-11,-4,.,5,-5,-22
Cc1cccc(CNc2ncnc3ccc(-c4ccc5c(c4)OCCO5)cc23)c1,3380,-7.6,-14,.,10,22,13
COc1cc(CN2CCN(C(=O)CC(C)C)CC2)cc(OC)c1OC,3381,5.7,-4,-2,10,0,-16
COc1cc(OC)cc(C(=O)Nc2ccc(S(=O)(=O)Nc3ccccn3)cc2)c1,3699,4.2,4,-14,10,6,-22
C/C(=N\NC(=O)c1nnn(-c2nonc2N)c1C)c1ccc(-c2ccccc2)cc1,6170,.,.,11,.,.,-18
COC(=O)C1=C(c2cccc(OC)c2OC)CC2CCC1N2C(=O)NC(C)C (stereo not drawn),.,3.6,7,.,11,11,.
COc1ccc(C(C(=O)NCC2CCCO2)N(Cc2ccco2)C(=O)c2snc(C(N)=O)c2N)cc1OC (stereo not drawn),3634,.,.,2,.,.,-19
O=C(Nc1nc2ccccc2[nH]1)c1ccccc1,3383,0.6,-3,12,-3,8,-7
CCOC(=O)NC1CCS(=O)(=O)C1 (stereo not drawn),4550,-0.5,4,3,3,6,-10
CN(Cc1ccccc1)CC(O)COc1ccc(CNCc2ccc(Cl)s2)cc1 (stereo not drawn),2619,0.0,-17,5,24,11,-27
Cc1ccc(CSc2nnc(-c3cccnc3)n2N)cc1,23095*,2.3,1,3,-5,4,-17
Cc1c(C(=O)N2CCCC(C(F)(F)F)C2)oc2ccccc12 (stereo not drawn),?,0.1,2,.,8,16,8
CCOC(=O)C1CCCN(C(=O)CN2C(=O)C(CC)Oc3ccc(C)cc32)C1 (stereo not drawn),8389,4.4,3,-2,18,12,-9
COc1ccc(NS(=O)(=O)c2ccc(NC(=O)C(C)(C(F)(F)F)C(F)(F)F)cc2)nn1,3331,-0.3,-1,-5,5,5,-14
O=C(NN=Cc1ccc(OC(=O)c2ccccc2)c([N+](=O)[O-])c1)c1ccc(O)cc1,.,4.5,3,.,18,19,.
CC(=O)OC1COC(n2ccc3ccccc32)C(OC(C)=O)C1OC(C)=O (stereo not drawn),3671,0.3,-2,-4,3,7,-18
O=C(CN1C(=O)NC2(CCCCCCC2)C1=O)N1CCOCC1,10978,-2.2,3,7,2,1,-23
Cc1cccc(-c2nc3ccccc3c(=O)n2NC(=O)c2cccnc2Cl)c1,2054,22,3,-4,11,9,8
CCOC(=O)C1CCN(c2ccc([N+](=O)[O-])cc2S(=O)(=O)N2CCOCC2)CC1,3523,.,.,-6,.,.,-35
O=C(CSc1nnc(-c2ccc(O)cc2)o1)Nc1ccccc1,5579,5.3,17,-4,-2,2,-117
COc1cccc(-c2nn(-c3ccccc3)cc2CNC(C)Cn2cncn2)c1 (stereo not drawn),3169,10.0,8,-2,-5,5,-22
Cc1ccc(C(=O)Nc2nnc(CC(=O)NN=Cc3ccc(O)c(O)c3)s2)cc1,.,2.1,1,.,10,-1,.
COc1cc(/C=N/NC(=O)c2c(C)nc3ccc(Cl)cn23)cc(OC)c1OC,3531,.,.,0,.,.,-7
CCOC(=O)N1CCN(C(=O)CNC(=O)C23CC4CC(CC(C4)C2)C3)CC1,.,-0.7,-7,2,-3,-11,0
O=C(Nc1ccc(F)cc1)C1CCN(S(=O)(=O)c2ccc3[nH]c(=O)oc3c2)CC1,5884,3.9,13,-14,-11,-8,-8
CCOC(=O)C1=C(N)Oc2ccc3ccccc3c2C1c1ccc(O)cc1 (stereo not drawn),4036,-4.1,30,-8,1,10,-2
CN1/C(=C\C(=O)c2cccnc2Cl)C(C)(C)c2ccccc21,2588,8.0,4,2,16,8,-34
CCCN(C(=O)CCSc1ccc(F)cc1)c1c(N)n(Cc2ccccc2)c(=O)[nH]c1=O,5858,2.0,8,-6,1,-1,-20
COC(=O)c1cc(-c2ccc(Br)cc2)c2c(=O)[nH]c(=O)n(C)c2n1,3099,0.7,8,-7,1,-7,-8
CS(=O)(=O)c1ccc2nc(NC(=O)c3ccc(N4C(=O)CCC4=O)cc3)sc2c1,.,3.9,8,-6,-15,-5,.
Cc1cc(NC(=O)NC2CC(=O)N(c3ccc4c(c3)OCCO4)C2)no1 (stereo not drawn),4604,3.1,14,12,9,4,-6
CCc1ccc(CNC(=O)c2ccc(NC(=O)C3=CSCCO3)cc2)cc1,5338,1.0,2,-7,-1,0,-12
Cc1ccc(C)c(NC(=O)c2cc(S(=O)(=O)N3CCOCC3)cn2C)c1,4587,20,18,1,0,4,-4
CCn1nnnc1SCC(=O)Nc1ccc2c(c1)OCO2,4738,0.9,0,13,.,.,-20
C=CCn1c[n+](CC(=O)c2ccc(Br)s2)c2ccccc21,5053,2.1,5,-3,1,-4,-11
Cc1ccc(NC(=O)/C(=C/c2ccco2)c2ccccc2)c(C)c1,4260,-4.8,16,-4,.,.,-18
CSc1ccc(S(=O)(=O)N2CCC(C(=O)NCC3CCCO3)CC2)cc1 (stereo not drawn),5168,1.2,5,-6,-11,-9,-21
COc1ccccc1OCC(=O)Nc1ccc2c(c1)OCO2,3119,1.9,-6,1,9,-2,-36
COc1cc(OC)cc(C(=O)N2CCN(c3ccccn3)CC2)c1,3255,4.6,2,5,14,5,-28
O=C(CCN1CCN(c2ccccc2)CC1)NN=Cc1ccccc1OC(F)F,.,2.5,7,.,4,-2,.
CCN(CC)c1ccc(S(=O)(=O)N2CCOCC2)cc1NC(=O)C1CC1,3928,2.0,1,.,-1,12,-8
O=C1c2ccccc2-c2onc3ccc(N4CCCC4)c1c23,2265,0.5,-7,9,4,7,-12
O=C(NCc1ccccc1F)C1CCN(S(=O)(=O)c2ccccc2)CC1,3755,-4.0,-4,-10,3,1,-30
CN1C(=O)N(CC(=O)N2CCN(c3ccccc3F)CC2)C(=O)C12CCCCC2,4058,4.5,7,.,7,-2,-23
COc1cc(OC)cc(C(=O)NN=C2SCC(=O)N2Cc2ccco2)c1,.,2.7,8,.,10,7,.

# Next section:
SMILES,Bead autofluor,RN4220 kill,ugtP null kill,BJeLR lethal,Mtb hypoxia inh,Mtb hypoxia inh growth,PrP UTR inh
COc1ccc(Br)cc1CNC(=O)CCc1nc(-c2ccc(C)cc2)no1,2766,-1.2,2,4,.,.,-20
Cc1nnc2n(-c3ccccc3)c(=O)c3ccccc3n12,4054,0.5,4,9,15,2,-17
CCn1c(SCC(=O)N2CC(=O)Nc3ccccc32)nnc1-c1ccoc1C,4605,1.3,2,29,.,.,-5
CCOC(=O)C1CCCN(CCC(C)c2ccccc2)C1 (stereo not drawn),21853*,2.0,1,-7,2,6,3
CN(CC(=O)Nc1c(Cl)cccc1Cl)C(=O)C1CC(=O)N(Cc2ccccc2)C1 (stereo not drawn),.,0.2,3,.,5,-1,.
CC(C)n1c(SCC(=O)Nc2nc3c(s2)CCCC3)nc2c1c(=O)n(C)c(=O)n2C,3979,4.5,9,1,3,2,-5
COc1ccc2[nH]c3c(=S)nc[nH]c3c2c1,2595,6.5,-11,4,1,13,-25
COc1ccccc1C(=O)NCC1CCN(c2ccc(S(=O)(=O)N3CCOCC3)cc2)CC1,11826,1.5,-5,-10,-2,10,-7
CCOc1ccccc1CN1CCNC(=O)C1CC(=O)N(C)C1CCOCC1 (stereo not drawn),5259,3.8,5,6,10,11,-15
CCn1nnnc1SCC(=O)N1CCCc2ccccc21,4239,0.7,-2,-2,.,.,-1
Cn1cnnc1Sc1ccc(C(=O)NCCC(c2ccccc2)c2ccccc2)cc1[N+](=O)[O-],2550,-12,27,-12,8,6,-34
O=C(Cc1ccc2c(c1)CCCC2)Nc1ccc2ccccc2c1,2192,-4.8,14,-6,8,0,-26
Nc1nc2nccc(-c3cccnc3)n2n1,3322,6.8,17,0,-3,4,-17
COc1ccc(C=Nn2c(SC)nnc2-c2ccccc2)cc1C,.,-0.8,-17,.,7,9,.
CCCN(Cc1cc2cc(C)ccc2[nH]c1=O)C(=O)c1cccc([N+](=O)[O-])c1,4431,0.8,0,4,7,2,-8

# Record cards (already shown). Screens in order: Bead autofluor, RN4220 kill, ugtP null kill, BJeLR lethal, Mtb hypoxia inh, Mtb hypoxia inh growth, PrP UTR inh
# CCOC(=O)N1CCN(C(=O)CNC(=O)C23CC4CC(CC(C4)C2)C3)CC1 across the screens: ., -0.7, -7, 2, -3, -11, 0
# Cc1nnc(Oc2ccccc2F)c2ccccc12 across the screens: 3346, 5.3, 1, -17, 3, 5, -45
# C=CCn1c[n+](CC(=O)c2ccc(Br)s2)c2ccccc21 across the screens: 5053, 2.1, 5, -3, 1, -4, -11

# Next part
SMILES,Bead autofluor,RN4220 kill,ugtP null kill,BJeLR lethal,Mtb hypoxia inh,Mtb hypoxia inh growth,PrP UTR inh
Cc1cc(C)nc(SCc2ccc(C(=O)N/N=C3\CCCC(=O)C3)cc2)n1,4251,.,.,-2,.,.,-2
C1=CC(Cc2cncs2)c2ccccc21 (stereo not drawn),3413,14,9,.,3,2,21
CN(C)C(=O)N1CCC(C(=O)NCc2cccs2)CC1,13117,-3.0,2,21,3,-2,-26
Cc1cc([N+](=O)[O-])nn1Cc1ccc(F)cc1,4108,0.6,1,7,10,8,6
CCC(C)(C)C1CCc2[nH]nc(C(=O)NCC3CC3)c2C1 (stereo not drawn),3428,1.8,3,.,6,0,-10
C[C@H](NC(=O)c1ccccc1Cl)C(=O)NCCc1ccc(S(N)(=O)=O)cc1,3520,-2.1,10,-8,5,8,-17
O=S(=O)(NCc1ccc(C(F)(F)F)cc1)c1ccc(-n2cnnn2)cc1,5293,3.2,-2,7,14,3,-15

# Given with two lines to a compound: part of the list above
# Order of values: Bead autofluor	RN4220 kill	ugtP null kill	BJeLR lethal	Mtb hypoxia inh	Mtb hypoxia inh growth	PrP UTR inh
CN(C)C(=O)N1CCC(C(=O)NCc2cccs2)CC1
  13117	-3.0	2	21	3	-2	-26
Cc1cc([N+](=O)[O-])nn1Cc1ccc(F)cc1
  4108	0.6	1	7	10	8	6
CCC(C)(C)C1CCc2[nH]nc(C(=O)NCC3CC3)c2C1 (stereo not drawn)
  3428	1.8	3	.	6	0	-10
C[C@H](NC(=O)c1ccccc1Cl)C(=O)NCCc1ccc(S(N)(=O)=O)cc1
  3520	-2.1	10	-8	5	8	-17
